From PubChem
gsp ag: gsp mutant agonism. gsp mutant cells, cAMP HTRF, 30 min; control for the full effect not named in the record. Potency, µM (series often up to 76.9 µM), inactives show at the top dose activation (cAMP increase), actives largely listed as activators. hit rate 0.13% among 340,000. AID 624287; active = well fitted activation curve with a large enough effect; inconclusive = small, poorly fitted or top-dose-only effect, or another doubt; inactive = no such curve, though single readings can be large or run the other way; cell line not stated here;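 also: phosphodiesterase inhibitor Ro 20-1724 added with compounds to block cAMP breakdown; potency is read from the fitted curve at half-maximal effect; nearly all actives have a fitted effect of over 60% in size; about a fifth of the inactives were tested at one dose only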
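Cells stably selected in G418 were plated at 2000/well, grown 16-24 hr, then given compounds in DMSO with the PDE inhibitor […] (300 uM solution added) for 30 min at 37C; cAMP was read by HTRF.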
Sfp PPTase inh: Sfp phosphopantetheinyl transferase inhibition | Potency, µM, for the others: max response, negative = inhibition, most hits filed as inhibitors | hit rate 3.5% among 310,000 | Q9F4F7 | Biochemical Sfp PPTase activity, qHTS | AID 1490; active = well fitted inhibition curve with a large enough effect; inconclusive = small, poorly fitted or top-dose-only effect, or another doubt; inactive = no such curve, though single readings can be large or run the other way;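 also: the enzyme is Sfp with the accession as filed and its product quenches rhodamine fluorescence; potency is read from the fitted curve at half-maximal effect; 0% = enzyme reaction without inhibitor and -100% = no enzyme wells; top concentration of the series not given in the record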
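Fluorescence-quenching assay: 15 nM Sfp-PPTase preincubated 15 min at room temperature with compound, then 5 uM rhodamine-CoA and 12.5 uM BHQ-2-labelled YbbR peptide added. Fluorescence (ex 525/em 598 nm) read at start and after 30 min; difference gives rate.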
gsp antag: antagonists of gsp mutant (McCune-Albright syndrome); gsp-mutant cells, cAMP HTRF, 30 min; control for the full effect not named in the record; Potency, µM (highest dose often 76.9 µM), for the others: at the top dose activity change, negative = inhibition, hits mostly inhibitors; hit rate 0.4% among 340,000; AID 624288; active = falling curve of any shape with a large fitted effect; inconclusive = falling curve, mostly with a smaller effect; inactive = flat or rising curve; cell line not stated here;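 also: intracellular cAMP measured with PDE inhibitor Ro 20-1724 present during compound exposure; potency is read from the fitted curve at half-maximal effect; % is scaled to controls: 0 for no effect and ±100 for the full control effect; nearly all actives have a fitted effect of over 65% in size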
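G418-selected cells were plated in DMEM/10% FBS for 16-24 h at 37C, then treated with compounds plus the PDE inhibitor […] (300 uM solution added) for 30 min at 37C. Intracellular cAMP was measured by HTRF after 30 min lysis at room temperature.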
TRPML1 blocker: blocks the human TRPML1 channel; TRPML1-inducible cells, Ca2+ dye fluorescence, FDSS; hits give low values; inhibition of EC80 agonist-evoked calcium signal; activity change, negative = inhibition, % (test concentration not listed); hit rate 0.02% among 390,000; AID 624415; in the data active means activity change below about -50%; inconclusive means about -30% to -50%; inactive means above about -30%;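 also: stimulus is agonist 54-4 at its EC80 concentration; % is scaled to controls: 0 for no effect and ±100 for the full control effect; compound concentration not given in the record; the text of the record puts the active cut at -80%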
Target sequence (Q9GZU1 whole entry, looked up): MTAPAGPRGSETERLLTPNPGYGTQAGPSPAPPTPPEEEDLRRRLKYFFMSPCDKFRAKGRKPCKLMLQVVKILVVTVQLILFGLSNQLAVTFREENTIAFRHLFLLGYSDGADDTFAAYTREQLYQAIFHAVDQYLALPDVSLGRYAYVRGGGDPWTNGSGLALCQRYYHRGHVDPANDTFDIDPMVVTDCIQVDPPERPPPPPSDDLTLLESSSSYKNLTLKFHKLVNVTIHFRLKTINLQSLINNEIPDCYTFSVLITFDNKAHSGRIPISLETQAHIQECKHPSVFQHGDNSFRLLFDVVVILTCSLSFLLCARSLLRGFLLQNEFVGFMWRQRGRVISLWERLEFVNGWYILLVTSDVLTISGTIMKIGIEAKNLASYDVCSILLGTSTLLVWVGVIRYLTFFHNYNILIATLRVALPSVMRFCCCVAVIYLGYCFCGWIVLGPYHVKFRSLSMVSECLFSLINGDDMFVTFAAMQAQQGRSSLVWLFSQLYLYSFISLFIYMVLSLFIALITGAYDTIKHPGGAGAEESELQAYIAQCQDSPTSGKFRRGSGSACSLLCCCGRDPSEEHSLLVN
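Calcium fluorescence in TRPML1-DL cells induced overnight with Tet: a 110 s read after compound pin addition, then a 110 s antagonist read after challenge with 54-4 at 4 uM final (EC80).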
TRPV1 PAM: enhances activation of the human vanilloid receptor TRPV1 | Q8NER1 | TRPV1-expressing cells, Fluo-8 calcium influx, capsaicin EC20 potentiation; host cell line not named in the record; control for the full effect not named in the record | potentiation, % at 8.33 µM | hit rate 0.02% among 320,000; active means potentiation above 80%; inconclusive means 30% to 80%; inactive means below 30%; also: 0% is about no effect
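Cells expressing TRPV1 were dye-loaded with Fluo-8 and read kinetically: 10 s baseline, 3 min after compound (agonist portion), then 2 min after EC20 capsaicin (allosteric enhancer portion). Calcium-bound dye fluorescence at 480/520 nm.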
ClpP mod: qHTS Assay for Activators of ClpP | Potency, µM (doses to about 57.5 µM), inactives show at the highest dose activity change, negative = active | purified B. subtilis ClpP, FRET peptide cleavage, 20 min | ATP-dependent Clp protease proteolytic subunit (Bacillus subtilis (strain 168)), P80244 | hit rate 1.9% among 340,000; active = well fitted falling curve with a large enough effect; inconclusive = small, poorly fitted or top-dose-only effect; inactive = no such curve, though single readings can be large or run the other way; also: potency is read from the fitted curve at half-maximal effect; the source files actives as falling curves though it sought activators and does not explain the sign; nearly all actives have a fitted effect of over 65% in size; many hits overshoot -100%
Target sequence (P80244 whole entry, looked up): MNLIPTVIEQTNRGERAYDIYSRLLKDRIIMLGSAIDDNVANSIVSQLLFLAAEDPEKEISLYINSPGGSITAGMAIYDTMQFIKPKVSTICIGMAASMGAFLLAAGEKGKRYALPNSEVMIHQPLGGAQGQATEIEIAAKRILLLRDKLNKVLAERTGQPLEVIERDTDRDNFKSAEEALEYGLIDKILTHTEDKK
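FRET quenching reversal measured ClpP activation: 10 microg/mL B. subtilis ClpP at pH 8 with the FRET-FV decapeptide, read at 430 nm after 320 nm excitation. The 20-min minus 0-min signal was scaled between DMSO/no-enzyme wells and ADEP (5.8 microM final).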
Menin-MLL FL inh: inhibitors of human menin-MLL interaction, wild-type MLL peptide; Fluorescence polarization, fluorescein-MLL peptide displacement from menin; FP activity change, % at 61.4 µM; 290,000 tested, under 10 active; inconclusive = falling polarisation curve, or a change in total fluorescence; inactive = total fluorescence flat and polarisation flat or rising; no compound was filed as active; the % refers to the polarisation; negative = inhibition;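 also: % of control where 0% means no effect; inhibitors lower the polarisation; unlabelled MLL peptide was the positive control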
* hit, by the source's call; ? = inconclusive; . = no result given; & = joins results of further samples; [ ] = another dose, or the depositor's remark.

SMILES | gsp antag | TRPML1 blocker | Sfp PPTase inh | TRPV1 PAM | gsp ag | Menin-MLL FL inh | ClpP mod
C=CCOC(=O)C1=C[C@H](C(C)(C)C)[C@@H](CCCO)[C@H](OCC)O1 | 9% | -4 | . | . | . | . | -2.1%
N#CC1=C(N)Nc2nc3ccccc3n2C1c1ccc(Cl)cc1 (stereo not drawn) | 5% | -11 | 3% | 5 | -7% | 0.0 | -4.6%
O=C(NNC(=S)NC1CCCCC1)c1ccccc1O | -8% | 14 | 21% | 0 | ? | -2.6 | .
CCN1C(=O)[C@@H]2[C@@H](c3ccc(-c4ccc(C(C)=O)cc4)c(OC)c3)N3CCCC[C@@]3(C(=O)OC)[C@@H]2C1=O | -11% | -4 | . | 26 | . | . | -4.2%
CN(CCO)c1nc2c(c(=O)n(Cc3ccc(Cl)cc3)c(=O)n2C)n1C | -1% | 41 | 6% | 5 | 8% | -0.6 | .
CN(C)CCNC(=S)Nc1cccc(Cl)c1 | 3% | -8 | 10% | -8 | 12% | -3.1 | 1.4%
Cc1cc(C(=O)N(C)CC(=O)Nc2ccccc2C(F)(F)F)c(C)o1 | 10% | -7 | -2% | -6 | -1% | -4.3 | 0.9%
Cc1ccc(-n2nc3c(=O)n(CCCC(=O)NCc4cccc(F)c4)nc(C)c3c2C)cc1 | ? | -9 | 8% | 6 | -3% | -2.8 | 0.9%
CN(CCc1ccccc1)C(=O)c1cccc(NC(=O)Cc2cccc(NC(=O)C3CCN(C(=O)C4CC4)CC3)c2)c1 | -4% | -1 | . | . | . | . | -0.5%
COc1cccc(CCc2nc3ccccc3c(=O)n2N)c1 | ? | 11 | . | . | -3% | . | -0.6%
CCn1cc(C(=O)N2CCN(c3ccccn3)CC2)c(=O)c2cc(S(=O)(=O)N3CCC(C)CC3)ccc21 | -2% | -6 | 12% | -11 | -36%[inhibitor] | 2.2 | .
Cc1cc(C(=O)COc2ncnc3sccc23)c(C)n1C | -3% | -2 | 4% | -14 | -50%[inhibitor] | -3.3 | -4.7%
COc1cccc(NC(=O)CN(C)C(=O)c2ccccc2-c2nc3ccccc3s2)c1 | -21% | -1 | . | -7 | -4% | . | ?
COc1ccc(N2CCN(C(=O)CC34CC5CC(CC(C5)C3)C4)CC2)c([N+](=O)[O-])c1 | 3% | 73 | ? | 8 | 4% | -2.1 | 3.2%
COc1cc(CC(=O)N/N=C/c2ccc([N+](=O)[O-])cc2)c([N+](=O)[O-])cc1OC | -7% | -6 | -9% | -5 | -1% | -1.4 | -1.2%
Cc1ccc(-c2c[n+]3c(n2-c2ccccc2)CCC3)cc1 | 10% | -7 | 13% | 27 | -24%[15.4 µM] | 1.3 | -6.4%
CC1CCc2nc3sc4c(c3c(N)c2C1)CCCC4 (stereo not drawn) | -29% | 18 | 10% | -9 | 0% | 4.5 | -2.9%
CC[n+]1c(/C=C/c2cc([N+](=O)[O-])ccc2O)ccc2ccccc21 | ? | -29 | 4% | -3 | 32% | -2.7 | .
CCC1SC(=Nc2cccc(C)c2)NC1=O (stereo not drawn) | 3% | -8 | -5% | 0 | -30% | -1.2 | .
CC(=O)c1ccc(NC(=S)N2CCCC(C(F)(F)F)C2)cc1 (stereo not drawn) | 13% | 10 | 2% | ? | -6%[15.4 µM] | 1.3 | 0.3%
CCCCCCC(=O)Oc1cccc(C2=CC(=O)CC(C)(C)C2=O)c1 | . | 16 | . | . | -8% | . | 1.7%
CCC1(C)CC2(CCCN(CCC(=O)c3ccccc3)C2)CCO1 (stereo not drawn) | 7% | 2 | 5% | 3 | 6% | 0.8 | -2.8%
CCOc1ncccc1C(=O)Nc1cc(S(=O)(=O)N2CCOCC2)ccc1N1CCCC1 | 4% | -4 | 0% | -1 | -1%[15.4 µM] | -1.2 | -1.7%
O=C(c1cc2cc(Cl)ccc2[nH]1)N1CCc2ccccc2C1 | ? | 22 | 1% | 3 | 1% | 7.9 | -1.5%
CC(=O)Nc1ccnc(-c2cccnc2)n1 | 7% | -9 | 6% | -1 | 15% | 2.5 | 0.3%
Fc1ccc(C2=CSC3=NCCN23)cc1 | 18% | -5 | -2% | 7 | 9%[15.4 µM] | 3.7 | .
CCOC(=O)c1c(NC(=S)Nc2ccccc2)sc2c1CCN(CCc1ccccc1)C2 | . | . | ? | 8 | . | ? | .
COc1cc(OC)c2c(-c3ccccc3)cc(=O)oc2c1C(CC(=O)N1CCN(c2ccccc2)CC1)c1ccc2c(c1)OCO2 (stereo not drawn) | . | . | 1% | -25 | . | 6.1 | .
O=C(CCNC(=O)c1ccccc1Cl)NC1=NCCS1 | 9% | 1 | 17% | -2 | 4%[15.4 µM] | -1.6 | .
Cc1cc(O)c(C)c(O)c1/C=N/NC(=O)c1cccnc1 | 3% | -2 | 15% | 14 | -40%[inhibitor] | 2.1 | .
C[C@@H](O)c1nc2ccccc2n1N | 5% | 5 | -6% | 2 | 9% | 1.9 | -0.7%
CC1=CC(C)(C)N(C(=O)CN2C(=O)c3ccccc3C2=O)c2ccccc21 | -15% | -4 | -3% | -17 | -3% | 1.9 | 0.2%
O=C(N/C(=C/c1ccc2c(c1)OCO2)C(=O)N1CCOCC1)c1cccs1 | 8% | 6 | 5% | -2 | -3% | -0.8 | 1.0%
Cc1cc(C)nc(-n2nc(C)cc2NC(=O)c2ccc(S(=O)(=O)N3CCOCC3)cc2)n1 | -16% | 3 | 6% | 2 | 8% | 0.8 | 0.0%
CCOC(=O)c1cc2c(ccn2-c2ccc(F)cc2)n1CC(=O)N1CCN(C(=O)c2ccco2)CC1 | 6% | -5 | 7% | -7 | -11% | ? | 32µM*
CNC(=S)N(CCc1c(C)[nH]c2ccccc12)Cc1ccco1 | 2% | -18 | 13% | 4 | -5% | 5.4 | 2.7%
O=C(O)c1ccc(NC(=O)C2C3CCC(O3)C2C(=O)O)cc1 (stereo not drawn) | 19% | 9 | -7% | -2 | 10% | -6.7 | 0.2%
CN(CC(=O)NCCN1CCN(Cc2ccccc2)CC1)S(=O)(=O)c1cccc2nsnc12 | 1% | -15 | 15% | 1 | -5% | -2.6 | -1.2%
CN(CCO)C(=O)c1cccc2c1-c1ccccc1C2=O | 4% | 2 | -9% | -11 | -62%[inhibitor] | -2.9 | 0.9%
Cc1cc(-c2csc(NC(=O)c3ccc(C#N)cc3)n2)c(C)n1Cc1ccccc1 | -10% | 3 | 14% | 29 | -15% | 7.3 | 1.3%
COCCn1c(SCC(=O)NC(=O)NC(C)C)nc2ccccc21 | 9%[15.4 µM] | -18 | 22% | 29 | 6% | 3.5 | -0.9%
CCCCc1cc(=O)oc2c(CN(CC)CC)c(O)c(Cl)cc12 | 11% | 16 | -3% | 11 | 22% | 3.5 | 11%
CCCCCn1c(Sc2nc3ccccc3s2)nc2c1c(=O)[nH]c(=O)n2C | 0% | 13 | 7% | -5 | -13% | -2.8 | 2.1%
CC(/C=C1\SC(=O)N(CC(=O)Nc2cccc(O)c2)C1=O)=C\c1ccccc1 | -21% | 31 | 8% | -20 | -1% | 0.4 | -1.0%
O=[N+]([O-])c1cccc(-n2cccc2/C=N/Nc2nc(N3CCCCC3)nc(N3CCCCC3)n2)c1 | -10% | 61 | -2% | ? | 5%[15.4 µM] | 0.9 | .
CCCCOc1ccc(S(=O)(=O)Nc2cc(OC)ccc2OC)cc1 | -2% | 15 | -10% | 18 | -11% | -1.8 | 0.0%
Cc1ccc(-c2cc(C(=O)Nc3cc(C)on3)c3ccccc3n2)cc1 | -4% | 7 | -6% | -9 | -86%[inhibitor] | 1.8 | 35µM*
N#Cc1ccc(C23CC4(C2)[C@H](CN(P(=O)(c2ccccc2)c2ccccc2)[C@@H]4c2ccccc2)C3c2ccc(Cl)nc2)cc1 (stereo partly drawn) | ? | 21 | 13%&-7% | -12 | . | 2.5&3.3 | -4.0%
CCCN(C(=O)c1cc(S(=O)(=O)N(C)c2ccc(OCC)cc2)ccc1C)C1CCS(=O)(=O)C1 (stereo not drawn) | -7% | -3 | . | 1 | -88%[inhibitor] | . | 0.9%
O=c1c(-c2ccccc2)nnc2sc(COc3ccc(Br)cc3)nn12 | -1% | 0 | 12% | -2 | 2% | 6.2 | .

(further entries)
SMILES | gsp antag | TRPML1 blocker | Sfp PPTase inh | TRPV1 PAM | gsp ag | Menin-MLL FL inh | ClpP mod
O=C(CSc1nc2ccccc2[nH]1)c1ccc(Cl)s1 | -8% | 35 | -8% | 5 | -19% | 6.4 | -12%
NS(=O)(=O)OCCCc1ccc(C(F)(F)F)cc1 | -8% | 32 | 7% | -18 | -21% | -5.4 | -2.0%
CC(C)(C)c1ccc(S(=O)(=O)NCCOCC(F)(F)C(F)F)cc1 | -2% | -14 | 27% | -20 | -8% | 3.0 | 1.7%
Cc1nc(CCNC(=O)Cc2ccc(Cl)cc2)cs1 | 13% | 23 | 24% | 12 | -60%[inhibitor] | 0.6 | -0.2%
CC(C)CCCNc1nc(N2CCOCC2)nc(N2CCOCC2)n1 | -5% | 20 | 0% | -15 | 12% | 0.8 | -5.5%
Nc1ccc2ncccc2c1N | 4% | -12 | 6.3µM* | 2 | -35%[inhibitor] | ? | -0.2%
Cn1nc(C#N)c(=O)[nH]c1=O | 10% | 9 | . | . | -9% | . | .
CN1C(=O)C2(C(C#N)=C(N)N(c3cc(Cl)cc(Cl)c3)C3=C2C(=O)CCC3)c2ccccc21 (stereo not drawn) | -7% | 15 | 12% | -11 | -16% | 0.0 | 0.4%
CC(C)Oc1ccc(C(CC(=O)O)Cc2ccccc2)cc1 (stereo not drawn) | 2% | 7 | 8% | 2 | -1% | 4.0 | 0.6%
Cc1nc2ccccc2c(=O)n1C1CCCCCC1 | -7% | -9 | 12% | 24 | -4% | 1.8 | 25µM*
CCN(CC(=O)Nc1ccccc1OC)C(=O)CSCc1ccc(C)cc1 | -13% | 0 | . | -5 | -1% | . | 1.2%
